NPYLR7 agonist – mosquito NPYLR7 agonism; HEK293T NPYLR7/Galpha15, GCaMP6s calcium fluorescence; activation, % at 10 µM; actives 0.15% (n = 270,000); in the data active = activation above about 40%;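 note: 0% = vehicle and 100% = reference agonist at the receptor; some compounds past the cut are filed as inactive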
NPYLR7 agonist max-min – recorded beside NPYLR7 agonist, whose call it bears; activation, %; measured here: Max-Min RFU normalised activation; some inactives read as strong as hits;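 span of the calcium signal over five minutes; 0% = vehicle and 100% = native peptide agonist; compound fluorescence can raise it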
* marks the source's active call; other numbers are inactive results; & = joins results of further samples. These rows are one share of the data (hit frequency here may not be typical).

The line under a structure holds: NPYLR7 agonist | NPYLR7 agonist max-min
- Cc1cnc2n(c1=O)C(CC(=O)NCCc1ccccc1)CS2 (configuration not stated)
    -2 | -6
- Cc1cccc(S(=O)(=O)NCCNc2ccc(Nc3ccncc3)nn2)c1
    12 | 3
- CCCCN(CC(=O)Nc1c(-c2ccccc2)c(C)nn1-c1ccc(OC)cc1)C(=O)Nc1ccc(F)c(Cl)c1
    0 | 7
- Cc1cnc(C(=O)NC2(c3ccccc3)CCOCC2)cn1
    0 | -2
- CC(=O)Nc1cc(NC(C)=O)cc(C(=O)Nc2ccc(C(C)(C)C)cc2)c1
    5 | 4
- OCCSCCOc1cccc2c(OCCSCCO)cccc12
    9 | 5
- C=CCC1(CC=C)CCCN1C(=O)c1cnc[nH]c1=O
    3 | 3
- CCOC(=O)C1CCCN(C(=O)c2nn(-c3cccc(F)c3)c(=O)n(Cc3cccc(C)c3)c2=O)C1 (configuration not stated)
    12 | 15
- CCOc1ccccc1C(=O)Nc1ccc(N2CCN(C(=O)c3cccnc3Cl)CC2)nc1
    -3 | 5
- CCOCCCN(Cc1nc(C(=O)OC)cs1)S(=O)(=O)c1ccc(C(C)(C)C)cc1
    -4 | 1
- N#Cc1cccc(C(=O)Nc2ccnn2C2CCCC2)c1
    5 | 7
- Cc1ccc(OCC(O)CNC(=O)C2CCN(C(=O)N(C)C)CC2)c(C)c1 (configuration not stated)
    10 | 2
- COc1ccc(CN(CC(O)COc2ccccc2C)CC2CCCO2)cc1OC (configuration not stated)
    10 | 9
- CC(C)COc1nc(-c2cccc(C(F)(F)F)c2)n(-c2ccc(NC(=O)c3ccc(Cl)c([N+](=O)[O-])c3)cc2)n1
    26 | 31
- CCOc1ccc(NC(=O)CSc2nc3ccc(C)cc3[nH]2)cc1
    -7 | -10
- CCOC(=O)C1CCCN(C(c2ccc(OCC)cc2)C2Sc3nc(C)nn3C2=O)C1 (configuration not stated)
    1 | -1
- Cc1cc(C)cc(-n2c(SCC(=O)NCC3CCCO3)nc3c(c2=O)SCC3)c1 (configuration not stated)
    -6 | -10
- COc1ccc(-c2nnc3c4ccccc4nc(NCc4ccco4)n23)cc1
    5 | -1
- CCCCCn1nc(C(=O)NC2(C)CCS(=O)(=O)C2)c2ccccc2c1=O (configuration not stated)
    -14 | -14
- CC(C)(C)c1ccc(Oc2ccc(NC(=O)C3CCC(C(C)(C)C)CC3)c3c2C(=O)c2ccccc2C3=O)cc1 (configuration not stated)
    9 | 9
- Cc1nc(NCCNC(=O)Nc2ccc3c(c2)OCO3)cc(-n2ccnc2C)n1
    -13 | -13
- N#C/C(=C\c1cccc2c1OCCCO2)c1nc2cc(Cl)ccc2c(=O)[nH]1
    -7 | -8
- COc1ccc(N2CCN(C(CNC(=O)c3cccc([N+](=O)[O-])c3)c3ccco3)CC2)cc1 (configuration not stated)
    8 | 4
- COC(=O)C1=C(C)NC(C)=C(C(=O)OC)C1c1ccccc1Cl
    6 | 4
- NC(=O)Cn1cc(CN2CCCC(C(=O)c3ccc(Cl)cc3)C2)c2ccccc21 (configuration not stated)
    8 | 8
- CSc1ncc(C(=O)NCC(=O)Nc2ccccc2Br)n1-c1ccccc1
    -1 | -3
- Cc1ccccc1Nc1nnc(C)c2ccccc12
    -18 | -24
- CC1(C)Cc2ccccc2-c2nc3[nH][nH]c(=S)n3c(=O)c21
    -21 | -25
- CCOC(=O)CCC(=O)N1CCC(n2c(=O)oc3ccc(OC)cc32)CC1
    4 | -2
- CCOC(=O)C(Cc1ccc(Cl)cc1)NC(=O)c1cc2cccnc2n(-c2ccc(F)cc2)c1=O (configuration not stated)
    -8 | -12

Filtered by structure, the entries above containing two or more sulfur atoms (three)
The line under a structure holds: NPYLR7 agonist | NPYLR7 agonist max-min
- OCCSCCOc1cccc2c(OCCSCCO)cccc12
    9 | 5
- CCOCCCN(Cc1nc(C(=O)OC)cs1)S(=O)(=O)c1ccc(C(C)(C)C)cc1
    -4 | 1
- Cc1cc(C)cc(-n2c(SCC(=O)NCC3CCCO3)nc3c(c2=O)SCC3)c1 (configuration not stated)
    -6 | -10

(more compounds)
The line under a structure holds: NPYLR7 agonist | NPYLR7 agonist max-min
- CN(Cc1cccs1)C(=O)CNc1cc(C(N)=O)c(F)cc1F
    -4 | 17
- Cc1cccc(C)c1OCC(C)NC(=O)N1CCC2(CC1)OCCO2 (configuration not stated)
    -1 | 0
- CNc1cncc(-c2ccccc2NC(C)=O)n1
    3 | -1
- COCCN(Cc1cccc(OS(=O)(=O)c2ccc(F)cc2)c1)C(=O)Nc1ccc(OC)cc1OC
    19 | 13
- CCC(C)C(NC(=O)Nc1cccc(C(F)(F)F)c1)C(=O)Nc1nnc(-c2ccc(C)cc2)s1 (configuration not stated)
    -9 | 5
- N=C1OC(c2ccccc2)CC1c1nc2ccccc2s1 (configuration not stated)
    2 | 1
- CC(C)c1[nH]nc(C(=O)N(C)Cc2ccccn2)c1Br
    11 | 13
- CCN(C)C(=O)c1ccc(C2CCCN2C(=O)CSc2nccn2C)s1 (configuration not stated)
    18 | -3
- CC(C)c1nc2ccccc2c2c1C(=O)N(CCCN(C)c1ccccc1)C2=O
    -3 | -13
- Cc1cc(O)c(CN(C)Cc2ccc3c(c2)OCO3)cc1C(C)C
    -2 | -4
- COc1ccccc1CN1CCC(CN(CC(C)C)C(=O)c2scnc2C)CC1
    10 | 8
- Cc1ccn(CC(=O)N2CCCC(C(=O)c3ccc(-c4ccccc4)cc3)C2)n1 (configuration not stated)
    -4 | -5
- CC1(C(=O)NS(=O)(=O)c2cccc(Cl)c2)CCN1C(=O)C1(c2ccc(Cl)cc2)CCC1 (configuration not stated)
    1 | -1
- CC(=O)c1cc2c(cc1NC(=O)CN(C)CC1OCCO1)OCO2
    -7 | -15
- O=C(NCc1ccco1)C(C1CCCC1)N1CCN(C(=O)/C=C/c2ccccc2)CC1 (configuration not stated)
    -2 | 4
- CC(=NNC(N)=O)C1CCCCC1
    -5 | -5
- Cc1ccc(C(=O)Nc2ccc(Cl)cn2)cc1S(=O)(=O)N1CCCCC1
    -10 | -15
- CCn1ncnc1CN1CC[C@@H](c2ccc3ccccc3c2)[C@H](O)C1
    5 | 3
- COc1cccc(CN2CCCC(CCC(=O)Nc3ccc(C(F)(F)F)cc3)C2)c1O (configuration not stated)
    -6 | -8
- CCC(=O)Nc1cccc(C(=O)NC(C)c2cn3ccsc3n2)c1 (configuration not stated)
    5 | 5
- CC1(C)C/C(=N\O)C(C)(C)c2ccccc21
    13 | 11
- CC(C)NS(=O)(=O)c1ccc(NC(=O)C23CC4CC(CC(Br)(C4)C2)C3)cc1
    3 | 0
- O=C(c1cccs1)N(Cc1cccc(Cl)c1)CC1CC(c2ccccc2F)=NO1 (configuration not stated)
    25 | 28
- Cc1c(C(=O)N(CC(N)=O)C(C)C)oc2ccc(Br)cc12
    2 | 0
- O=C(c1cnn2c1CCCC2)N(CC#Cc1ccccc1)C1CC1
    -3 | -3
- COc1cc(/C=C\C(=O)NCc2ccc3c(c2)cc(C)n3C)cc(OC)c1OC
    6 | 3
- CCNC(=O)N(CC(=O)N(CCc1c[nH]c2ccccc12)Cc1ccc(Cl)cc1)C1CC1
    4 | 14
- O=C(Cn1c2ccccc2c2ncn(Cc3ccccc3)c(=O)c21)NCCc1ccccc1
    0 | -4
- CCN(CCC(F)(F)F)C(=O)c1n[nH]c(C2CC2)c1Cl
    -6 | 44
- O=C(c1cc(Cl)cnc1Cl)N1CCN(C(c2ccccc2)c2ccc(Br)cc2)CC1 (configuration not stated)
    4 | 1

Later entries:
The line under a structure holds: NPYLR7 agonist | NPYLR7 agonist max-min
- CC1(C)CC(=O)c2cnc3c([N+](=O)[O-])c(N)nn3c2C1
    -2 | -3
- O=C(CCl)NCCCCCCCCCNC(=O)CCl
    3 | 6
- CCOC(=O)Cc1c(C)nc2ncnn2c1N1CCN(C(=O)c2cc(Cl)sc2Cl)CC1
    16 | 10
- Cc1cc(CNC(=O)C2CCCN(C3CCN(C(=O)C4CC4)CC3)C2)no1 (configuration not stated)
    5 | -1
- COc1ccc(CCNC(=O)c2cc(Cl)ccc2NS(=O)(=O)c2cc(C)ccc2OC)cc1
    3 | 6
- Cc1ccc(CN(CCN(C)C)C(=O)CCn2c(=O)oc3ccccc32)o1
    3 | 5
- CCOC(=NCCN1CCOCC1)NC(=O)c1ccc(C)cc1
    22 | 24
- CC(C)CC(=O)C(=O)NCC1CCN(c2cnn(C)c(=O)c2)C1 (configuration not stated)
    6 | -2
- Oc1ccc[n+](Cc2cccc(Br)c2)c1
    7 | 3
- CCN(CC)S(=O)(=O)c1ccc(O)c(NC(=O)COc2ccc(Cl)cc2)c1
    6 | 11
- Cc1ccc(/C=C/C(=O)N2CCCC(CS(N)(=O)=O)C2)cc1 (configuration not stated)
    -13 | -12
- CNS(=O)(=O)c1cccc(C(C)NCc2ccc(F)c(F)c2)c1 (configuration not stated)
    -1 | -7
- CC(C)N(CC(=O)N1CC(=O)N(c2ccc(F)cc2)C1)C(=O)c1ccc(Cl)cc1Cl
    -5 | 8
- Cc1c(=O)n(OCc2ccc(Cl)cc2)c2ccccc2[n+]1[O-]
    -4 | -4
- COc1cc(NCCc2ccc(OC)c(O)c2)ncn1
    2 | 1
- Cc1ccc(NCc2cccnc2N(C)Cc2ccccc2)nn1
    -1 | -2
- Fc1cccc(F)c1CCC1CCCN(Cc2cscn2)C1 (configuration not stated)
    2 | -7
- c1ccc2c(c1)oc1c(N3CCCC3c3ccc4c(c3)OCCO4)ncnc12 (configuration not stated)
    3 | 1
- CSCCCNc1ccc(-c2n[nH]c(C)n2)cc1
    18 | 11
- COCCN(Cc1csc(COc2c(OC)cccc2OC)n1)C(=O)c1cccc(OC)c1
    16 | 14
- CN(C)c1ccc(CNC(=O)Cn2ccc(=O)c3ccccc32)cc1
    5 | 2
- O=C1CSC(c2cccs2)N1c1ccccc1F (configuration not stated)
    -6 | -15
- O=C(NCCCN1CCOCC1)C(C1CCCC1)N1CCN(C(=O)c2ccco2)CC1 (configuration not stated)
    -7 | -10
- COCCN(CC(=O)N(C)C)C(=O)C1(c2cccc(F)c2)CCC1
    3 | 2
- Cc1sc2nc(CN(C)Cc3ccccc3)[nH]c(=O)c2c1C
    3 | 8
- O=c1c(-c2ccc(O)cc2)coc2cc(O)ccc12
    -8&-5 | -18&-18
- Cc1ccccc1-c1nc(SCc2cccnc2)c2c(=O)n(C)c(=O)n(C)c2n1
    -7 | -10
- CCN(CC)c1ccc(S(=O)(=O)N2CCCCC2)cc1NC(=O)c1ccc(C)nc1
    -2 | -3
- COc1cccc(CN2CCC(C(=O)Nc3cccc(-c4cccc(F)c4)c3)CC2)c1OC
    2 | -3
- O=C1NCC2(CCN(C(=O)CC3CCc4ccccc43)CC2)O1 (configuration not stated)
    7 | 4

Exported with each value named: 2 of the compounds above.
CCOC(=NCCN1CCOCC1)NC(=O)c1ccc(C)cc1
- NPYLR7 agonist: 22
- NPYLR7 agonist max-min: 24
CC(C)CC(=O)C(=O)NCC1CCN(c2cnn(C)c(=O)c2)C1 (configuration not stated)
- NPYLR7 agonist: 6
- NPYLR7 agonist max-min: -2

Next part
The line under a structure holds: NPYLR7 agonist | NPYLR7 agonist max-min
- Cc1nnc2n1CC(CNCc1ccc(N3CCCCC3)cc1)CC2 (configuration not stated)
    7&9 | 6&9
- CCN(Cc1cc(=O)n2nc(C)sc2n1)C(C)c1cc2ccccc2o1 (configuration not stated)
    -1 | 11
- CC(=O)NC(C)c1ccc(-n2cnc3c(C)ncnc32)cc1 (configuration not stated)
    6 | 2
- O=C1c2ccccc2C(=O)c2c(NCc3ccccc3)cccc21
    7 | 3
- CCCc1[nH]n(-c2ccc([N+](=O)[O-])cc2)c(=O)c1C=NCCc1ccc(S(N)(=O)=O)cc1
    -5 | -6
- CCc1nc2ccc(C(=O)NCCC(C)C)cn2c1N(CC)CC(=O)N(C)C
    5 | 17
- c1cc(CCn2ccnc2-c2ncc[nH]2)ccn1
    10 | 1
- CCC(C(=O)Nc1ccc(OC)cc1)n1c(=O)n(-c2ccccc2Cl)c(=O)c2ccc(Cl)cc21 (configuration not stated)
    -4 | -2
- COc1ccc(Cl)cc1C(=O)Nc1cc(C)nn1-c1nc(C)c(C)c(=O)[nH]1
    9 | 2
- COCCCN(Cc1c(-c2ccccc2)noc1N(C)C1CCCCC1)C(=O)c1cccc(F)c1
    -3 | 1
- Clc1ccc(-c2cn3c(n2)SCC3)cc1
    1 | -1
- C=CCn1c(=O)c2c(nc3n2CC(C)CN3c2ccc(F)cc2)n(C)c1=O (configuration not stated)
    3 | 3
- COC(=O)c1ccc(C(=O)N(CCN(C)C)c2nc3ccc(Cl)cc3s2)cc1
    -2 | -6
- O=C(CC(=O)NCc1ccco1)NCc1ccco1
    11 | 11
- O=C(O)C1C2C=CC(C2)C1C(=O)NCc1ccoc1 (configuration not stated)
    2 | 1
- CC(OC(=O)c1ccc(-n2cccc2)cc1)C(=O)N(C)c1ccccc1 (configuration not stated)
    11 | 11
- C/C(=C\c1ccccc1)CN1CCCC(N2CCN(c3ccccc3F)CC2)C1 (configuration not stated)
    0 | 0
- Brc1ccc(-n2cnnn2)c2ncccc12
    -1 | -4
- O=S(=O)(Nc1cccnc1)c1ccc(Oc2ccccc2Cl)cc1
    -1&-1 | -2&4
- O=C(CCCNC(=O)c1ccsc1)Nc1ccccc1
    4 | 3
- Cc1ccc(C)c(C(C)CNC(=O)CCc2nc3cc(S(=O)(=O)N(C)C)ccc3n2C)c1 (configuration not stated)
    -4 | -4
- Cc1cc2nc(Sc3nnc(C)n3C)c3ccccc3n2n1
    1 | 3
- O=C(Nc1ccccn1)c1ccc(N2CCCCCC2)nc1
    4 | 2
- CN(C(=O)OC(C)(C)C)C1CCN(CC(F)(F)F)C1=O (configuration not stated)
    -8 | -14
- Cc1c(C(=O)N2CCCC2)cnn1C(C)(C)C
    -1 | 8
- COc1ccc(-c2nn(CN(C)Cc3ccc(F)cc3)c(=S)o2)c(OC)c1
    3 | 11
- CCc1nnc(CN(CC)C(=O)c2ccc(-n3nc(C)cc3C)cc2)o1
    -5 | -6
- COCCn1cc(NC(=O)N2CCCCC2)c2ccccc21
    13 | 5
- Cc1ccc(-c2nnc(SCC(=O)N(C)C3CCCCC3)o2)cc1
    7 | 5
- CN1C(CCl)Nc2cc(Cl)c(S(N)(=O)=O)cc2S1(=O)=O (configuration not stated)
    -3 | 2

Assay outcomes (PubChem BioAssay)
